YjeE inh: YjeE (TsaE) inhibition, E. coli; P0AF67; purified YjeE, fluorescence polarisation of a bound ADP probe; Potency, µM; 71,000 tested, 0.05% active; AID 605; active = well fitted falling curve; inconclusive = weaker or top-dose-only fall, or a rising curve; inactive = flat or poorly fitted curve;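 further: top concentration of the series not given in the record; excess ADP was the control for the full effect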
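Purified YjeE (10 uM) with BODIPY Texas Red-labeled ADP probe (2 uM); compounds pin-transferred, 15 min at room temperature. Binding inhibition read as decreased fluorescence polarization; ADP titration as control.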
Bst PK mod: modulators of Bacillus stearothermophilus pyruvate kinase; 51,000 tested, 1.2% active; AID 361; partly purified Bacillus stearothermophilus pyruvate kinase, luminescence ATP production; ribose 5-phosphate activator present at AC10; Potency, µM; in the data active means potency below about 11 µM; inconclusive means mostly about 12 µM to 25 µM; inactive means weaker than that;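 the screen sought inhibitors and activators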;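 further: potency means the concentration at half of the fitted maximal effect; scaled between full activation by ribose 5 phosphate and full inhibition by luteolin; about four in five hits inhibit and the cells do not say which; series up to 57 µM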
Starred values were filed as active, the others as inactive; i = inactive; . = no result given. Some of the compounds tested; rates above refer to the full screens.

SMILES	YjeE inh	Bst PK mod
Cc1cc(=O)n2nc(N3CCCC3C(=O)NCc3ccccn3)sc2n1 (stereo not given)	i	>57
Cc1csc(NC(=O)c2ccoc2C)n1	i	>57
CCCc1n[nH]c2c1/C(=N/O)CC(c1ccccc1)C2 (stereo not given)	i	>57
CN(C1CCS(=O)(=O)C1)S(=O)(=O)c1ccc(C2CCCCC2)cc1 (stereo not given)	i	>57
CCOc1ccc(N(CC(=O)NCc2ccccc2OC)S(C)(=O)=O)cc1	i	>57
CC#C[C@]1(O)CC[C@H]2[C@@H]3CCC4=CC(=O)CCC4=C3[C@H](c3ccc(N(C)C)cc3)C[C@@]21C	i	.
O=C(Nn1cnnc1)C(Sc1ccccc1)c1ccccc1 (stereo not given)	i	>57
CC(C)COc1ccc(C2NC(=O)NC2=O)cc1 (stereo not given)	i	>57
Cc1nc2ccccc2c(=O)n1/N=C/c1cccnc1	i	.
CC12CC(NC(=O)N1c1ccc(C(=O)N3CCN(c4ccccn4)CC3)cc1)c1ccccc1O2 (stereo not given)	i	>57
COC(=O)c1ccccc1NC(=O)C(C)Oc1ccccc1 (stereo not given)	i	>57
COc1cc(CN2CCCCC2)cc2cc(C(=O)O)c(=O)oc12	i	.
CCOc1ccc(N2CC(=O)Nc3ccccc3NCC2=O)cc1	i	>57
N#CC1=C(N)Oc2n[nH]c(-c3cccs3)c2C1c1ccoc1 (stereo not given)	i	.
Cn1cc(C(=O)NCCc2ccccc2)c(=O)c2cc(S(=O)(=O)N3CCOCC3)ccc21	i	>57
CCc1ccc(-c2nc(CSCC(=O)N3CCN(c4ccccn4)CC3)c(C)o2)cc1	i	>57
O=C(COc1ccccc1Cl)OCC(=O)N1CCN(S(=O)(=O)c2ccccc2)CC1	i	>57
CN(C)S(=O)(=O)c1ccc(C(=O)OCCCN=C2NS(=O)(=O)c3ccccc32)cc1	i	.
NC(=O)C1CCCN(S(=O)(=O)c2ccc(Br)cc2)C1 (stereo not given)	i	i
CC(=O)Nc1cccc(C(=O)Nc2ccccc2C(=O)O)c1	i	>57
COc1cc(C(=O)OC(C)C(=O)N2CCc3ccccc3C2)ccc1OCC(=O)N1CCOCC1 (stereo not given)	i	11*
CN(C)Cc1ccccc1-c1cc(NC2CC2)ncn1	i	.
Cc1onc(-c2c(Cl)cccc2Cl)c1C(=O)NCc1ccco1	i	>57
Cc1cc(C(=O)NCCCN2CCN(C3CCCCC3)CC2)n(-c2ccccc2)n1	i	.
CN1C(=O)c2cccc3c(S(=O)(=O)NCc4ccco4)ccc1c23	i	>57
N#CC(C(=O)NC1CCCCC1)c1nc2ccccc2nc1N1CCOCC1 (stereo not given)	i	>57
COc1cc(-c2nnc(COc3ccc4cc(Br)ccc4c3)o2)cc(OC)c1OC	i	.
CCOc1ccc(C(=O)CN2CCN(S(=O)(=O)c3ccc(Cl)cc3)CC2)cc1	i	i
Nc1ccnn1Cc1cccnc1	i	>57
CCOC(=O)N1CCC(NC(=O)c2cc(C(=O)NC3CCCC3)ccc2CO)CC1	i	.
Cc1ccc(NC(=O)CCSc2nnc(-c3ccco3)o2)cc1	i	>57
Cc1ccc(C)c(NC(=O)CN(C)S(=O)(=O)c2ccccc2)c1	i	>57
COc1ccc(C2(CCN)CC(C)N(C)CC2C)cc1 (stereo not given)	i	>57
COCCNC(=O)C(c1ccccc1)N(C(=O)Cn1nnc2ccccc21)c1cccnc1 (stereo not given)	i	>57
CC(C)C[C@H]1C(=O)N2CCC[C@@H]2[C@]2(O)O[C@](NC(=O)[C@@H]3C=C4c5cccc6[nH]c(Br)c(c56)C[C@H]4N(C)C3)(C(C)C)C(=O)N12	i	.
Cc1oc2ncnc(N)c2c1C	i	.
O=c1c(-c2ccccc2)nc2cnc(Nc3ccccc3)nc2n1Cc1cccs1	i	.
Fc1ccc2c(Cl)c(-c3nnc(-c4cccs4)o3)sc2c1	i	>57
N#Cc1nc(-c2ccc(OCc3ccc(Cl)cc3)cc2)oc1N1CCOCC1	i	>57
CC1CN(c2cc(=O)n(-c3cccc(Br)c3)c(=O)[nH]2)CC(C)O1 (stereo not given)	i	.
COc1ccc(-c2nc3cnc(N(C)C)nc3n(CCc3ccccc3)c2=O)cc1	i	.
Cc1cc(NC(=O)Cn2cnc3sc(C)c(-c4ccccc4)c3c2=O)no1	i	>57
CC(=O)OCC(=O)[C@@]1(O)[C@H](C)C[C@@H]2[C@H]3CCC4=CC(=O)C=C[C@]4(C)[C@]3(F)[C@@H](O)C[C@@]21C	i	.
Cc1nc2cc(NC(=O)N3c4ccccc4CC3C)ccc2n1C (stereo not given)	i	9.5*
CCC(=O)N(Cc1ccco1)c1nc(-c2cc(OC)ccc2OC)cs1	i	>57
CN1CCN(CC(=O)N(Cc2c(C#N)c3ccccc3n2C)c2ccccc2)CC1	i	>57
CCCCCOC(=O)Cc1c(O)c2ccccc2[nH]c1=O	i	>57
O=c1c(-c2ccccc2)nc2cnc(Oc3ccccc3)nc2n1C[C@H]1CCCO1	i	.
CN1C(=S)SC(N(O)C(=O)Nc2ccccc2)C1(C)C (stereo not given)	.	>26
Cc1oc(C(=O)O)cc1CSc1nnc(-c2ccccc2)n1C	i	>57
O=C1CCCCC1Sc1nnc(Cc2cccs2)n1CCc1ccccc1 (stereo not given)	i	>57
O=c1cc(-c2ccccc2)[nH]c2nc(Cl)ccc12	i	.
Cc1cc(C)nc(NC2=NCC(=O)N2c2ccc(F)c(Cl)c2)n1	i	>57
Cn1c(-c2ccc3c(c2)OCO3)cnc1NCc1ccccc1	i	>57
CC(C)N=C(N)/N=C(\N)Nc1ccc(Cl)cc1	i	.
Cc1cnc(-c2nnc(N(C)C(=O)C3CCOC3)s2)cn1 (stereo not given)	i	>57
CN1C(=O)C(O)(C2COC(C)(C)CC2=O)c2cc(Br)ccc21 (stereo not given)	i	>57
Cn1cc(C(=O)c2ccc(Cl)cc2)cc1-c1nc2ccccc2n1C	i	>57
COCCOC(=O)C1=C(C)NC(C)=C(C(=O)OC(C)C)[C@H]1c1cccc([N+](=O)[O-])c1	i	.
O=c1[nH]cnc2cc(Cl)ccc12	i	>57

The last 2 records of the section before open the next one:
SMILES	YjeE inh	Bst PK mod
COCCOC(=O)C1=C(C)NC(C)=C(C(=O)OC(C)C)[C@H]1c1cccc([N+](=O)[O-])c1	i	.
O=c1[nH]cnc2cc(Cl)ccc12	i	>57
COCCOC(=O)c1cc(C(=O)c2cc(F)ccc2O)coc1=N	i	>57
COc1ccccc1-c1nc(SCC(=O)O)n[nH]1	i	>57
Cc1cnc(NC(=O)C(C)N2C(=O)C3CC=CCC3C2=O)s1 (stereo not given)	i	>57
O=C(Cc1ccccc1)CC1(O)C(=O)Nc2ccccc21 (stereo not given)	i	>57
CCOC(=O)c1c(CN2CCOCC2)oc2ccc(OC)cc12	i	>57
COc1ccc(-n2c(N)c(-c3nc4ccccc4n3C)sc2=S)cc1	i	>57
COc1cccc(C(=O)Nc2ccc(S(=O)(=O)NCc3ccco3)cc2)c1	i	>57
COC(=O)C1CCN(S(=O)(=O)c2c(C)n(C)c(=O)n(C)c2=O)CC1	i	.
COc1ccc(NC(=O)COC(=O)c2ccc(N3CCCC3=O)cc2)cc1OC	i	>57
Cc1cc(OCCCC(=O)N2CCCCC2)cc(C)c1Cl	i	>57
N#C[C@@H](N=Nc1ccccc1C(=O)O)C(N)=O	i	.
COc1ccc(NC(=O)CCCN2C(=O)C3C4C=CC(C4)C3C2=O)c(OC)c1 (stereo not given)	i	>57
Cc1cc(=O)n2[nH]c(N3C(=O)CCC3=O)nc2n1	.	>26
CC(=O)N(c1ccc(C)cc1)C1C=CS(=O)(=O)C1 (stereo not given)	i	.
CN1C(=O)N(C)C2(c3ccccc3)Nn3c(s/c(=C/c4ccco4)c3=O)=NC12c1ccccc1 (stereo not given)	i	>57
COc1ccc(-c2nc(SCC(=O)N3CCOCC3)n[nH]2)cc1	i	>57
CCSc1nnc(NC(=O)c2cccnc2)s1	i	>57
CCC(=O)c1ccc(OCC(O)CN2CC(C)OC(C)C2)cc1 (stereo not given)	i	>57
Cc1c(N2C(=O)c3ccc4c5c(ccc(c35)C2=O)CC4)c(=O)n(-c2ccccc2)n1C	i	.
O=C(CSc1ncn[nH]1)Nc1nc(-c2ccccc2)ns1	i	>57

Not a retest: an excerpt of the list.
SMILES	YjeE inh	Bst PK mod
COCCOC(=O)c1cc(C(=O)c2cc(F)ccc2O)coc1=N	i	>57
COc1ccccc1-c1nc(SCC(=O)O)n[nH]1	i	>57
Cc1cnc(NC(=O)C(C)N2C(=O)C3CC=CCC3C2=O)s1 (stereo not given)	i	>57
O=C(Cc1ccccc1)CC1(O)C(=O)Nc2ccccc21 (stereo not given)	i	>57
CCOC(=O)c1c(CN2CCOCC2)oc2ccc(OC)cc12	i	>57
COc1ccc(-n2c(N)c(-c3nc4ccccc4n3C)sc2=S)cc1	i	>57
COc1cccc(C(=O)Nc2ccc(S(=O)(=O)NCc3ccco3)cc2)c1	i	>57

Next part:
SMILES	YjeE inh	Bst PK mod
Cc1cccn2c(=O)c3cc(C(=O)NCc4cccnc4)c(=N)n(C)c3nc12	.	>11
O=C(NCc1ccco1)NCC(F)(F)F	i	>57
CCC1(C)Cc2ccccc2-c2nc3n(c(=O)c21)CC(C(=O)O)S3 (stereo not given)	i	.
C=CCOC(=O)C1=C(C)N=C2SCCC(=O)N2C1c1ccc(OC(=O)c2ccco2)cc1 (stereo not given)	i	.
CCc1ccccc1NC(=O)c1nnn(CC(=O)Nc2cccc(C)c2)c1N	i	>57
CCN1C(=O)c2cccc3c(NC(=O)c4cccc(N5C(=O)CCC5=O)c4)ccc1c23	i	>57
CCOC(=O)N1CCN(C(=O)c2ccc3c(=O)n(CCc4ccccc4)c(=S)[nH]c3c2)CC1	i	>57
CCC(=O)N1CCc2cc(Br)cc(S(=O)(=O)NCCN3CCCCC3C)c21 (stereo not given)	i	>57
O=C(COc1ccc(S(=O)(=O)NCc2ccccc2)cc1Cl)N1CCOCC1	i	>57
CCOc1ccc2cc(C#N)c(SCC(=O)N3CCC(C)CC3)nc2c1	i	.
O=c1c(Cc2ccccc2O)c(O)nc2n1CCCS2	i	.
CCOc1ccccc1C1NC(=O)NC(C)=C1C(=O)OC1CCCCC1 (stereo not given)	i	.
Cc1ccc(S(=O)(=O)N2CCN(C(=O)CN3CCN(C)CC3)C2)cc1	i	>57
Cc1cc(NC(=O)NC(=O)c2cccc(OC(F)(F)C(F)F)c2)n[nH]1	i	>57
N#Cc1ccc(CSc2nnc(-c3ccncc3)n2CCc2ccccc2)cc1	i	>57
CCOC(=O)c1cccc(NC(=O)C2CCCO2)c1 (stereo not given)	i	>57
Nc1nc2c(ncn2[C@@H]2C=C[C@@H](CO)C2)c(=O)[nH]1	i	.
Cc1nc2c(C(=O)N3CCN(c4ccccn4)CC3)cnn2c(C)c1Cc1cccc(Cl)c1	i	>57
COc1ccc(CCn2c(N)cc(=O)[nH]c2=S)cc1OC	i	>57
Cn1c(=O)cnc2cnc(OCc3ccccc3)nc21	i	.
CCOC(=O)N1CCN(S(=O)(=O)c2ccc(C(=O)Nc3nc4ccccc4s3)cc2)CC1	i	>57
Fc1cccc(CN2CCCCCCC2)c1	i	>57
COC(=O)[C@H](C)NC(=O)Nc1ccc(OC)c(OC)c1	i	>57
CC(=O)OCC(=O)[C@@]1(OC(C)=O)[C@@H](C)C[C@H]2[C@@H]3C[C@H](F)C4=CC(=O)C=C[C@]4(C)[C@@]3(F)[C@@H](O)C[C@@]21C	.	>26
CCOC(=O)c1sc2nc(N3CCOCC3)c3c(c2c1N)CCN(C)C3	i	>57
COc1cc(C(=O)NCC(=O)OCC(=O)c2ccc[nH]2)cc(OC)c1OC	i	>57
O=C(CSc1nnc(-c2cccs2)o1)OCc1ccccc1	i	>57
Cc1sc(NC(=O)CSc2nnc(C)c(=O)[nH]2)c(C#N)c1C	i	>57
O=C(CCCn1c(=O)[nH]c2ccsc2c1=O)N1CCN(Cc2ccc3c(c2)OCO3)CC1	i	>57
COc1ccc(N2CCN(C(=O)c3ccc(NS(=O)(=O)c4cccc(F)c4)cc3)CC2)cc1	i	>57
COC(=O)c1nn(-c2c(C)n(C)n(-c3ccccc3)c2=O)cc1O	i	>57
CCNS(=O)(=O)c1ccc(NC(=O)Cc2ccc(F)cc2)cc1	i	>57
O=C(CCCOc1ccc(Cl)cc1)N1CCOCC1	i	>57
Cc1ccc(NC(=O)C2CCCN2S(=O)(=O)c2cccc3cccnc23)cc1F (stereo not given)	i	.
CCOCCCNC(=O)C1CCN(C(=O)N(C)C)CC1	i	>57
Cc1nc2nc(COc3ccccc3)[nH]n2c(=O)c1C	i	>57
CCOC(=O)c1c(C)oc2c1c(C(c1cccnc1)N1CCN(C)CC1)c(O)c1ccccc12 (stereo not given)	i	>57
CCc1cc2c3c(c(=O)oc2cc1OC)CCCC3	i	>57
NC(=O)C1CCN(C(=O)CN2CCN(c3cccc(C(F)(F)F)c3)CC2)CC1	i	>57
O=C(NCc1ccco1)c1cc(-c2cccnc2)nc2ccccc12	i	>57
CCCCOC(=O)Nc1nc2ccc(OC)cc2s1	i	.
Cc1nc2ccccn2c1C(=O)c1ccccc1	i	>57
Cc1c(C(=O)N2CCN(c3ccccn3)CC2)oc2ccccc12	i	.

Reformatted in markdown: entries from further up
| structure | YjeE inh | Bst PK mod |
| --- | --- | --- |
| CCOC(=O)c1sc2nc(N3CCOCC3)c3c(c2c1N)CCN(C)C3 | i | >57 |
| COc1cc(C(=O)NCC(=O)OCC(=O)c2ccc[nH]2)cc(OC)c1OC | i | >57 |
| O=C(CSc1nnc(-c2cccs2)o1)OCc1ccccc1 | i | >57 |

Compound activity: PubChem BioAssay, National Center for Advancing Translational Sciences (NCATS)
